Assay outcomes deposited in PubChem by several laboratories.
Bfl-1 A1 inh – inhibitors of the anti-apoptotic protein A1, read as caspase activation. MEF A1-2A-BIM cells, Caspase-Glo 3/7 luminescence, 3 h; percent of clofoctol response, vehicle zero. caspase activation, % (concentration not given with the values). 330,000 tested, 0.066% active. AID 2462;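 active means over half of replicate activation scores above 10%, or exactly half above 10 with the replicate mean above 10; inconclusive means replicate mean below 10 yet half the replicates above 10; inactive means over half of replicates below 10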;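 further: wells of about 30 µL received 50 nL stock; many hits fall short of the cut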
UCH37 DUB inh – human UCH37 deubiquitinating enzyme inhibition; inhibition, % (test concentration not listed); Q9Y5K5; 330,000 tested, 0.33% active; AID 588478; purified proteasome/UCH37, Ub-AMC cleavage fluorescence;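 active means mean of two replicates above 20%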;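 further: 0% = compound-free wells with enzyme and 100% = wells lacking proteasome; stock transfer was 100 nL into about 20 µL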
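assay system = human UCH37 enzyme supplied as purified proteasome complex | amount = proteasome at 0.15 nM in the dispensed enzyme solution | schedule = 30 min compound-proteasome preincubation then 25 min substrate reaction, room temperature | measured by = fluorescence, ex 355 nm, em 460 nm | benchmarks = no-proteasome wells (full inhibition) and compound-free wells (no inhibition)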
Beta apoptosis – beta cell apoptosis inhibition; INS-1E cytokine-induced death, ATP luminescence, 48 h; percent of positive-control rescue, neutral wells zero; protection from apoptosis, % (concentration not given with the values); 300,000 tested, 0.8% active;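 active means all replicates at 75% or more, or half of them and the mean; inconclusive means half reach 75% but not the mean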;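 further: 0% = cytokine-treated negative control wells and 100% = positive control rescue; higher means more ATP so stronger rescue from cytokine killing; wells of about 40 µL received 100 nL stock; the first replicate is given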
LANA-H2A inh – blocks KSHV LANA binding to histone H2A/H2B | Q9QR71 | cell-free LANA-H2A/H2B peptide, fluorescence polarization | inhibition, % (no concentration beside the values) | 320,000 tested, 0.6% active | AID 2629; in the data active means inhibition mostly above about 10%, no sharp cut-off; inactive means mostly below about 6.7%;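 further: stock transfer was 7.5 nL into about 10 µL; 0% = median of vehicle wells and 100% = median of positive control wells; one replicate is shown; the record names a cut of 25% in any replicate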
Target sequence (Q9QR71 whole entry, looked up): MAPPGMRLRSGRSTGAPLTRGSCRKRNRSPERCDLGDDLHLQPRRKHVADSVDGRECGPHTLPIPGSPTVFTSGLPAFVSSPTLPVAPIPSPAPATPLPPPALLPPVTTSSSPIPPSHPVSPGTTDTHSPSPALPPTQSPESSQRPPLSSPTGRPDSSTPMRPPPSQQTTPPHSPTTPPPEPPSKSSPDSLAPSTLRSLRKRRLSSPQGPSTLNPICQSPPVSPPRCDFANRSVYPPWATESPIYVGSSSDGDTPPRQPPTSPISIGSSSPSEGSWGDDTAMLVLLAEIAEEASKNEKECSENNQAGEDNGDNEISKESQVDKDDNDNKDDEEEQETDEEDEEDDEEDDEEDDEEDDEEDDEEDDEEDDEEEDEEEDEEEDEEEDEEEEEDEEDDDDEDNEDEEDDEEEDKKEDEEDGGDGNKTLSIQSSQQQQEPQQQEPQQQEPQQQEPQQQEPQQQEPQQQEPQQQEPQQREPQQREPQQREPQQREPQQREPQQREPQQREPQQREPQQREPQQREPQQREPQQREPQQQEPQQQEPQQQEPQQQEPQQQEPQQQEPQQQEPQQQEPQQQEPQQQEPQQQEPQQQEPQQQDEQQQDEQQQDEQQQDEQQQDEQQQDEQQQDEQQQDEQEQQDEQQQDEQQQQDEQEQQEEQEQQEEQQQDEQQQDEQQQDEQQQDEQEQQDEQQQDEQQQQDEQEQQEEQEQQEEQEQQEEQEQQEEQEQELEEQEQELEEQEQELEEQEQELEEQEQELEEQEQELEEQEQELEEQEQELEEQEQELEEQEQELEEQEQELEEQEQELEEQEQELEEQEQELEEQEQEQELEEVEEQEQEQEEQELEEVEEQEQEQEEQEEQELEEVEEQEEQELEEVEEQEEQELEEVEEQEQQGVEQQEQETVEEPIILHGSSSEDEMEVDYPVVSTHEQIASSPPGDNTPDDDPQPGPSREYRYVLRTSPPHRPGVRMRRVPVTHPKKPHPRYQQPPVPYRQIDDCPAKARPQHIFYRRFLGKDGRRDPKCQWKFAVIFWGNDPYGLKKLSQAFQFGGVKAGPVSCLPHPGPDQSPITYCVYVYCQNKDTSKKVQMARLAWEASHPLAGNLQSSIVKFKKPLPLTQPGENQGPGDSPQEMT
Beta2AR agonist – activates human beta-2 adrenergic receptor causing internalization | AID 504454 | P07550 | Am2.2-beta2AR cells, FAP receptor internalization, flow cytometry; reference of the scale not given here | 340,000 tested, 0.43% active | response, % (no concentration beside the values);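 active means response above a set limit, near 3 SD of response in nonfluorescent compounds, cut at about 42% in these data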;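 further: stock transfer was 100 nL into about 11 µL; a reference agonist was the positive control; negative values mostly stem from fluorescent compounds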
RanGTP-Imp inh – disruptors of Ran-importin-beta complex formation – biochemical, FRET, CFP-Ran, YFP-importin-beta, homogeneous, primary screen. cell-free CFP-Ran/YFP-importin-beta FRET ratio. inhibition, % (test concentration not listed). 300,000 tested, 1.1% active;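 active means most replicates above 15%; inconclusive means exactly half above 15%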;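 further: 0% = DMSO wells and 100% = Ran loaded with GDP instead of GTP; wells of about 40 µL received 100 nL stock; the first replicate is given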
T cruzi inh – blocks replication of Trypanosoma cruzi | T. cruzi beta-gal in NIH3T3, luminescence, 90 h | inhibition, % (concentration not given with the values) | 300,000 tested, 1.4% active;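 active means mean inhibition across valid replicates above about 55%, limit read from the data; inconclusive means mean below that limit but half or more replicates reach it; inactive means mean below it, under half of replicates reach it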;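 further: signal also drops with host cell toxicity which is not excluded here; 0% = plate median of DMSO wells and 100% = zero luminescence signal; higher percent means less beta-gal luminescence so fewer parasites; stock transfer was 50 nL into about 50 µL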
Calb FLC – C. albicans growth modulation with fluconazole | C. albicans CaCi-2 (fluconazole-resistant clinical isolate) + fluconazole, Alamar Blue growth, 48 h | growth inhibition, % (no concentration beside the values) | 300,000 tested, 0.57% active | AID 1979;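 active means most replicates above 75%; inconclusive means exactly half above 75%; inactive means most below 75%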;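 further: all wells also contain fluconazole at 8 µg/ml as a sub-toxic cotreatment; 0% = median of DMSO wells and 100% = median of geldanamycin control wells; wells of about 8 µL received 7.5 nL stock; the first replicate is given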
* = called active by the depositor; i = inactive; ? = inconclusive; . = no result given.

SMILES	Bfl-1 A1 inh	UCH37 DUB inh	Beta apoptosis	LANA-H2A inh	Beta2AR agonist	RanGTP-Imp inh	T cruzi inh	Calb FLC
COCC(C)n1c(C)cc(C(=O)COC(=O)/C=C/c2cccc(F)c2)c1C (configuration not stated)	-0.2	-1.3	-7	-0.1	13	.	0	11
CCc1ccc(CCC(=O)Nc2nnc(CC)s2)o1	-0.3	2.8	-5	0.5	-1	2.2	-18	-15
OCC1C2c3ccccc3C(c3ccccc32)C1CO (configuration not stated)	-0.3	0.8	-6	-4.3	-4	?	-19	-2
COc1ccccc1NC(=O)N1CCCC1C(=O)Nc1nnc(C(C)C)s1 (configuration not stated)	0.9	2.0	-4	-0.1	2	-2.1	-17	5
Cc1cccc(-c2nc3ccc(C(=O)NCCN4CCN(C)CC4)cc3nc2-c2cccc(C)c2)c1	-0.4	-378	30	3.0	33	6.0	42	37
CCCN1CCC(NC(=O)Cc2ccccc2C)CC1	-0.4	0.0	-5	2.0	-2	4.7	1	-1
O=C(CCCN1C(=O)CCC1=O)Nc1cccc(C(F)(F)F)c1	-0.4	2.9	-7	0.7	4	3.5	-9	0
COc1ccc(C)cc1NC(=O)CN1CCN(S(=O)(=O)c2ccc(F)cc2)CC1	-0.2	1.2	12	1.1	6	10	4	-2
COc1cccc(/C=N/NC(=O)CNC(=O)c2cccnc2)c1O	1.2	.	-6	-3.4	-1	?	-7	-3
O=C(Cc1ccccc1)Nc1ccccc1N1CCCC1	1.0	2.8	-4	-1.8	-5	3.1	19	-21

Overlap with the part before: six entries, then new ones.
SMILES	Bfl-1 A1 inh	UCH37 DUB inh	Beta apoptosis	LANA-H2A inh	Beta2AR agonist	RanGTP-Imp inh	T cruzi inh	Calb FLC
Cc1cccc(-c2nc3ccc(C(=O)NCCN4CCN(C)CC4)cc3nc2-c2cccc(C)c2)c1	-0.4	-378	30	3.0	33	6.0	42	37
CCCN1CCC(NC(=O)Cc2ccccc2C)CC1	-0.4	0.0	-5	2.0	-2	4.7	1	-1
O=C(CCCN1C(=O)CCC1=O)Nc1cccc(C(F)(F)F)c1	-0.4	2.9	-7	0.7	4	3.5	-9	0
COc1ccc(C)cc1NC(=O)CN1CCN(S(=O)(=O)c2ccc(F)cc2)CC1	-0.2	1.2	12	1.1	6	10	4	-2
COc1cccc(/C=N/NC(=O)CNC(=O)c2cccnc2)c1O	1.2	.	-6	-3.4	-1	?	-7	-3
O=C(Cc1ccccc1)Nc1ccccc1N1CCCC1	1.0	2.8	-4	-1.8	-5	3.1	19	-21
Cc1ccc(N/N=C2\CS(=O)(=O)N(C)c3ccsc32)cc1	0.9	.	5	3.5	3	2.5	64*	7
C=CCc1cc(S(=O)(=O)c2ccc(O)c(CC=C)c2)ccc1O	-0.4	2.6	3	-46	-2	-2.7	-7	10
COC(=O)c1sc(S(=O)(=O)Nc2ccc3cn[nH]c3c2)c(C(=O)OC)c1C	-0.7	1.1	3	-8.2	-13	-0.5	-11	7
CCCCNC(=O)c1ccc(NC(=O)CC2SC(N3CCCC3)=NC2=O)cc1 (configuration not stated)	-0.2	0.6	4	1.0	-8	.	.	.
COc1cc(OC)cc(C(=O)NC(=S)NCCc2ccccc2)c1	-4.2	3.3	1	1.5	-10	7.2	11	-22
COc1cc(/C=C2\S/C(=N/S(=O)(=O)c3ccc(C)cc3)NC2=O)c([N+](=O)[O-])cc1OC	0.6	20*	-2	0.8	13	1.3	5	26
CC(C)(C)NC(=O)NC(=O)Cn1cc(C(F)(F)F)ccc1=O	0.2	1.6	-4	3.9	-4	-3.8	-2	-7
CCN(CC)C(=O)[C@H]1CC(CC(=O)NCCCn2ccnc2)C(=O)N2CCc3c([nH]c4ccccc34)[C@]12C (some centres not stated)	-0.5	-0.3	-6	.	-2	.	.	.
C#CCn1ccc(O)c(Cc2c(F)cccc2Cl)c1=O	0.8	1.4	0	-4.7	4	0.8	-3	-1
Cc1ccc(OCC(=O)Nc2ccccc2N2CCCC2)c(C)c1	-0.2	6.0	-10	-3.7	-2	3.3	34	-6

Two records picked at random from the list so far:
SMILES	Bfl-1 A1 inh	UCH37 DUB inh	Beta apoptosis	LANA-H2A inh	Beta2AR agonist	RanGTP-Imp inh	T cruzi inh	Calb FLC
C#CCn1ccc(O)c(Cc2c(F)cccc2Cl)c1=O	0.8	1.4	0	-4.7	4	0.8	-3	-1
Cc1ccc(OCC(=O)Nc2ccccc2N2CCCC2)c(C)c1	-0.2	6.0	-10	-3.7	-2	3.3	34	-6

Additional structures follow.
SMILES	Bfl-1 A1 inh	UCH37 DUB inh	Beta apoptosis	LANA-H2A inh	Beta2AR agonist	RanGTP-Imp inh	T cruzi inh	Calb FLC
CCN(CC)Cc1c(O)ccc2c(=O)c(Oc3ccccc3OC)coc12	-0.1	-184	-7	4.7	2	-2.7	-5	5
CN(C)C(=O)c1cn(-c2ccccc2)nc1-c1cc2ccccc2o1	?	-2.8	-4	3.6	-5	-2.3	16	8
CCOc1ccc(OCc2ccc(C(=O)N(C)c3ccccc3)o2)cc1	0.9	1.8	-3	-3.6	1	?	10	10
COCCn1c(SCC(=O)Nc2sccc2C(N)=O)nc2cc(Cl)ccc2c1=O	0.0	3.2	12	4.3	8	2.1	5	-4
COc1cccc(C(=O)NCCNC(=O)c2ccco2)c1	0.2	3.3	4	8.6	-5	?	0	-3
O=C(NCCO)c1ccc(-c2nnc(N3CCOCC3)c3ccccc23)cc1	0.1	2.6	-8	4.0	0	-2.8	8	-4
COc1cccc(C2(C)NC(=O)N(CC(=O)c3cc(C)n(C4CC4)c3C)C2=O)c1 (configuration not stated)	-0.4	3.3	-3	0.2	13	.	.	.
COc1ccccc1-c1coc2c(CN3CCCC(C)C3)c(O)ccc2c1=O (configuration not stated)	-0.2	i	-4	-0.3	1	0.8	10	2
COc1ccc2ccc(OC)c(/C=N/n3cnnc3)c2c1	-0.1	.	-1	-2.1	3	6.3	1	3
COc1ccc(-c2c[n+]3c(n2-c2ccccc2)CCCCC3)cc1	-0.3	0.0	115*	-2.2	8	-4.6	?	112*
Cc1ccccc1-n1c(=O)cc(N2CC(C)OC(C)C2)[nH]c1=O (configuration not stated)	0.4	-1.2	2	-3.2	-6	63*	-3	-13
Cc1ccccc1C(=O)Nc1ccc2nc3n(c(=O)c2c1)CCCC3	0.2	3.5	3	0.0	5	-1.6	0	15
Cc1ccc(C2=NCCNC2=O)c(C)c1	2.7	0.1	-4	6.9	-2	7.7	-4	-6
CCC(Sc1nc2ccccc2c(=O)n1CC1CCCO1)C(=O)NCc1cccnc1 (configuration not stated)	0.4	4.4	-5	-0.5	-2	?	7	7
C=CCN1C(=O)c2oc3ccccc3c(=O)c2C1c1ccc(O)c(OC)c1 (configuration not stated)	-0.3	4.4	-5	-5.2	-14	?	-10	-4
COc1ccccc1C(=O)NCC(=O)NCCCN1CCOCC1	0.2	0.6	1	3.4	1	.	.	.
CCCNc1c(NS(=O)(=O)c2ccc(C3CCCCC3)cc2)c(=O)oc2ccccc12	-0.8	-19	-7	5.7	1	3.8	7	-2
CNCc1cn2cc(Cl)ccc2n1	0.7	1.1	-4	.	-8	-0.7	6	6
COCCN1CCN(C(=O)c2cc(COc3ccc(Cl)cc3OC)on2)CC1	0.4	5.2	-1	-0.9	-2	4.9	-8	2
O=c1cccc2c1c1cc[nH]c3ccc(=O)n2c31	-0.6	3.5	-5	8.6	22	?	5	1
CCOC(=O)C(=O)Cc1nc2ccccc2s1	0.1	-46	-4	0.5	9	52*	2	-2
C=CCc1cc(C)ccc1OCCOCCN1CCN(C)CC1	0.3	0.3	-4	1.8	-4	-1.7	46	-2
O=C(Nc1c2c(nn1-c1ccc(Cl)cc1)CS(=O)(=O)C2)C1CC1	-0.5	3.9	1	0.5	4	-1.3	1	2
N#CCc1ccc(NC(=O)/C=C/c2ccc([N+](=O)[O-])o2)cc1	.	7.2	.	.	15	3.1	42	97*
CCOn1c(=O)c(-c2cc(OC)ccc2OC)[n+]([O-])c2ccccc21	0.2	6.3	-2	-0.7	-5	2.3	-6	-2
CCOC(=O)N1CCC(NC(=O)CCc2cn(C)c3ccccc23)CC1	-0.7	-0.3	-3	-10	14	2.4	-19	22
CC1(C)C(=O)C2(CCCC2)C(=O)OC1c1ccco1 (configuration not stated)	-0.2	0.7	-6	-2.6	-5	1.1	-18	9
CCCn1cnc2c(c1=O)c1nc3ccccc3nc1n2Cc1ccccc1OC	.	-5.7	.	.	.	1.5	31	3
CC(C)NC(=S)NCc1cccnc1	1.8	2.5	0	-1.4	-1	5.5	-13	-4
CCCCNC(=O)CSc1nnc(Cc2ccccc2)n1CC	-0.9	1.1	4	3.1	2	-2.3	-6	?

Record cards, as listed above. Values in the order: Bfl-1 A1 inh	UCH37 DUB inh	Beta apoptosis	LANA-H2A inh	Beta2AR agonist	RanGTP-Imp inh	T cruzi inh	Calb FLC
O=C(Nc1c2c(nn1-c1ccc(Cl)cc1)CS(=O)(=O)C2)C1CC1 in the list: -0.5	3.9	1	0.5	4	-1.3	1	2
CC(C)NC(=S)NCc1cccnc1 in the list: 1.8	2.5	0	-1.4	-1	5.5	-13	-4
N#CCc1ccc(NC(=O)/C=C/c2ccc([N+](=O)[O-])o2)cc1 in the list: .	7.2	.	.	15	3.1	42	97*

Carrying on.
SMILES	Bfl-1 A1 inh	UCH37 DUB inh	Beta apoptosis	LANA-H2A inh	Beta2AR agonist	RanGTP-Imp inh	T cruzi inh	Calb FLC
O=C(CN1CCN(c2ccc(O)cc2)CC1)N1CCc2ccccc21	-0.2	0.2	-2	0.5	-16	-1.2	16	15
CN(C(=O)COC(=O)c1ccc[nH]c1=O)C1CCCCC1	-2.0	-3.3	-1	1.3	7	4.7	-10	-6
COc1cc2c(C(=O)N(C)c3ccc(F)cc3)cn(C)c(=O)c2cc1OC	1.4	3.7	1	3.6	-1	1.0	-2	-10
COc1cccc(C2CC(c3ccccc3OC)n3ncnc3N2)c1 (configuration not stated)	0.3	-0.2	-4	-3.1	3	0.3	14	10
CCOC(=O)c1cc2c(ccn2C)n1CC(=O)N1CCN(c2ccccc2OC)CC1	.	4.9	.	.	.	5.6	7	3
Cc1ccc(C(=O)NC(=S)Nc2cccc(NC(=O)c3ccccc3Cl)c2)cc1[N+](=O)[O-]	0.5	-0.3	-2	1.1	3	1.4	-45	-1
COc1ccc(NS(=O)(=O)c2cccc(C(=O)N/N=C/c3ccc4c(c3)OCCO4)c2)cc1	1.8	.	-15	1.7	1	9.0	3	-10
CC(/C=N/NC(=O)c1n[nH]c2c1CCC2)=C\c1ccccc1	-1.4	.	62	-1.0	.	-3.2	47	17
Cc1ccc2nc(SCC(=O)Nc3nonc3C)[nH]c2c1	0.5	3.0	-6	-1.1	-4	0.4	5	16
